# SARS PLP yeast = blocks SARS-CoV papain-like protease in a yeast assay; S. cerevisiae expressing SARS-CoV PLpro, growth rescue; control for the full effect not named in the record; Potency, µM (highest dose often 32.9 µM), for inactives: at the highest dose activity, positive = growth rescue; actives 0.19% (n = 330,000); AID 485353; active means well fitted rising curve with a large enough effect; inconclusive means small, poorly fitted or top-dose-only effect; inactive means no such curve, though single readings can be large or run the other way; further: 0% is about no effect; nearly all actives have a fitted effect of over 55% in size; growth read by luminescence after 48 h
# 2A StopGo = lowers the luciferase signal of an FMDV 2A StopGo reporter; AID 1159524; Potency, µM (doses to about 57.9 µM), without a hit: at the highest dose signal change, negative = less light; human cells with a luciferase reporter of 2A StopGo recoding; control for the full effect not named in the record; actives 1.2% (n = 410,000); active = well fitted falling curve with a large enough effect; inconclusive = small, poorly fitted or top-dose-only effect; inactive = no such curve, though single readings can be large or run the other way; tested in HEK293T cells; further: on the % scale 0 is the no-effect control and ±100 the full control effect; nearly all actives have a fitted effect of over 45% in size; luciferase light after 4 h
# Lassa entry inh = Lassa virus entry inhibition; Potency, µM (series often up to 37.9 µM), for the others: at the highest dose activity change, negative = inhibition, hits mostly inhibitors; Lassa virus pseudotype entry inhibition, cell reporter; control for the full effect not named in the record; actives 1.2% (n = 300,000); active means well fitted inhibition curve with a large enough effect; inconclusive means small, poorly fitted or top-dose-only effect, or effect the other way; inactive means flat fitted curve, though single readings scatter; tested in HEK293 cells; further: on the % scale 0 is the no-effect control and ±100 the full control effect; nearly all actives have a fitted effect of over 50% in size; luciferase read-out
# NS1 function inh = inhibitors of influenza NS1 protein function | S. cerevisiae slowed by influenza A NS1, growth recovery by OD600 | Potency, µM (titrated, usually from 46.1 µM), without a hit: at the top dose activity, positive = more growth | actives 0.4% (n = 270,000) | AID 2326; active means well fitted rising curve with a large enough effect; inconclusive means small, poorly fitted or top-dose-only effect; inactive means no such curve, though single readings can be large or run the other way; further: nearly all actives have a fitted effect of over 50% in size
#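 S. cerevisiae expressing influenza A NS1, grown in glucose, washed, then diluted 1:100 into pH 6.0 -URA galactose medium with 23 nl compound. Growth recovery read as OD600; NS1-free strain serves as control.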
# RE007 growth inh = less growth of the S. pombe RE007 Vpr strain | actives 0.21% (n = 360,000) | Potency, µM (titrated, usually from 92.2 µM), inactives show top-dose activity change, negative = less growth | AID 651644 | S. pombe RE007 Vpr strain, BacTiter-Glo ATP luminescence, 24 h; control for the full effect not named in the record; active = well fitted falling curve with a large enough effect; inconclusive = small, poorly fitted or top-dose-only effect; inactive = no such curve, though single readings can be large or run the other way;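 further: on the % scale 0 is the no-effect control and ±100 the full control effect; nearly all actives have a fitted effect of over 50% in size; the assay follows cell death caused by Vpr and the record does not say whether a fall means rescue or toxicity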
#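 Fission yeast strain RE007, carrying one chromosomally integrated HIV-1 vpr copy, was seeded at OD 0.01 in PMG+AL medium with 23 nL pinned compound. After 24 h at 30 °C and 99% humidity, viability was read by BacTiter-Glo luminescence.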
# Marburg entry inh = inhibitors of Marburg virus binding or cell entry; Marburg virus pseudotyped entry inhibition, cell reporter; control for the full effect not named in the record; about a third of the inactives were read at about 46 µM; Potency, µM (highest dose often 37.8 µM), without a hit: top-dose activity change, negative = inhibition, most hits filed as inhibitors; actives 1.8% (n = 300,000); AID 540276; active = well fitted inhibition curve with a large enough effect; inconclusive = small, poorly fitted or top-dose-only effect, or effect the other way; inactive = flat fitted curve, though single readings scatter; tested in HEK293 cells; about a fifth of its hits are not listed in these tables; further: on the % scale 0 is the no-effect control and ±100 the full control effect; luciferase read-out
# Cruzain Triton = inhibitors of Trypanosoma cruzi cruzain with detergent; P25779; purified cruzain, Z-FR-AMC fluorescence, 0.01% Triton; Potency, µM, for inactives: max response, negative = inhibition, hits mostly inhibitors; actives 0.43% (n = 200,000); AID 1478;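 further: plate controls were neutral wells for no effect and buffer without enzyme for full effect; nearly all actives have a fitted effect of over 40% in size; top concentration of the series not given in the record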
# Target sequence (P25779 123-467 limits assumed): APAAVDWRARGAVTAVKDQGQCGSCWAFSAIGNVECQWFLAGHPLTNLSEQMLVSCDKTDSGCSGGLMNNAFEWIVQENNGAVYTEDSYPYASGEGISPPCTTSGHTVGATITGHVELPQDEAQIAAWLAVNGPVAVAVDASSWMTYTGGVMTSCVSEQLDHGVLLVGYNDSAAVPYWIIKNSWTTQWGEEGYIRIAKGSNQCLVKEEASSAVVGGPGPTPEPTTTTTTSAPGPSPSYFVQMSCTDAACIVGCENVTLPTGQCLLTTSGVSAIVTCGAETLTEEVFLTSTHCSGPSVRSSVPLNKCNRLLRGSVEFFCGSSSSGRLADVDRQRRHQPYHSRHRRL
#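 Cruzain (1.5 nM) preincubated 15 min at RT with compound in 100 mM sodium acetate pH 5.5, 5 mM DTT, 0.01% Triton X-100. Reaction started with 2 uM Z-FR-AMC; AMC fluorescence (ex 360/em 450 nm) change over 60 s gave rate.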
# Cruzain noTriton = blocks cruzain activity in detergent-free assay; actives 2.3% (n = 200,000); P25779; Potency, µM, inactives show max response, negative = inhibition, actives largely listed as inhibitors; purified cruzain, Z-FR-AMC fluorescence, no detergent;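 further: plate controls were enzyme without inhibitor for no effect and buffer without enzyme for full effect; nearly all actives have a fitted effect of over 40% in size; top concentration of the series not given in the record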
#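 Detergent-free condition (0.00005% Triton X-100) in acetate buffer pH 5.5 with DTT. 1.5 nM enzyme and compound were pre-mixed 15 min, then 2 uM Z-FR-AMC substrate added; reaction progress from fluorescence change between first and third reads (60 s).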
# * marks the source's active call; other numbers are inactive results; ? = inconclusive; nt = not tested or not shown; & = joins results of further samples; [ ] = dose if it differs, or a comment. Unless noted, the call rests on the fitted dose curve; in most records, active means well fitted curve in the direction sought with a large enough effect; inconclusive means small, poorly fitted or top-dose-only effect, or another doubt; inactive means no such curve, though single readings can be large; an effect the other way counts as inactive or inconclusive. Potency means the concentration at half of the fitted maximal effect.
# Values run as follows: SARS PLP yeast	2A StopGo	Lassa entry inh	NS1 function inh	RE007 growth inh	Marburg entry inh	Cruzain Triton	Cruzain noTriton
> COCCNC(=O)C1CC(c2ccc(F)cc2)=NO1 (stereo not given)
    13%	19%	3%	-7%	13%	16%	-4.1%	-6%
> CCn1c(SCC(=O)Nc2oc(C)c3c(C)n[nH]c(=O)c23)nc2sc(C)c(C)c2c1=O
    0%	-19%	18%	nt	-10%	?	nt	nt
> COc1cccc(-n2cnnn2)c1
    nt	12%	?	7%	26%	14%	6.2%	-9%
> CC(=O)Nc1cc[n+](C(C)C(=O)c2ccc(Cl)cc2)cc1 (stereo not given)
    0%	-13%	-6%[46.1 µM]	nt	-3%	1%[46.1 µM]	nt	nt
> CCCc1cc(=O)[nH]c2nnc(SCC(=O)Nc3ccc(OC)cc3)n12
    nt	4%	22%[46.1 µM]	nt	nt	nt	4.9%	0%
> COc1ccc(OCC(=O)Nc2cc(C)c(Cl)cc2OC)c([N+](=O)[O-])c1
    -28%	-7%	3%	4%	15%	0%	-1.5%	0%
> CCC(=O)Nc1cc(Cl)ccc1C(=O)O
    1%	0%	4%	5%	-1%	9%	4.6%	4%
> O=[N+]([O-])c1ccc(N2CCN(C(=S)Nc3ccc(F)cc3F)CC2)cc1
    0%	?	?	5%	3%	-1%[14.2 µM]	nt	nt
> COc1ccccc1-n1cnnc1SCC(=O)N1CCOCC1
    0%	3%	13%[46.1 µM]	11%	-7%	1%[46.1 µM]	nt	nt
> COc1ccc(C(=O)NNC2=NCCCCC2)cc1
    0%	18%	nt	7%	-18%	19%[46.1 µM]	nt	nt
> COc1cccc(/C=N/NC(=O)c2nc(-c3ccccc3)cc(-c3ccccc3)n2)c1O
    11µM*	0%	?	?	5%	?	-0.9%	13µM*
> Cc1cc(C)cc(N(CCC#N)C(=O)CSC2=Nc3ccccc3C3CC=NN23)c1 (stereo not given)
    -5%	-30%	?	nt	-1%	?	nt	nt
> O=C(CN1c2ccccc2Sc2ccccc21)N/N=C/c1ccccc1
    -8%	-21%	?	2%	-7%	?	nt	nt
> CCOc1ccccc1NC(=O)CSc1nnnn1Cc1ccccc1
    2%	-19%	24%	-17%	-6%	-22%	-7.3%	-2%
> COc1c(C)cccc1C(=O)Nc1ccc(N2CCN(S(C)(=O)=O)CC2)cc1
    2%	24%	-2%	-2%	3%	-14%	-2.7%	1%
> COc1ccc(-c2nn(-c3ccccc3)cc2/C=N/O)cc1
    -1%	14µM*	nt	-7%	4%	nt	nt	nt
> Cc1ccc(N(CC(O)CN2CCCC2)S(=O)(=O)c2ccccc2)cc1 (stereo not given)
    0%	nt	1%	12%	2%	-29%	3.2%	5%
> COc1ccc(C(=O)c2cn(CC(=O)Nc3cc(OC)cc(OC)c3)c3ccc(OC)cc3c2=O)cc1
    -4%	1%	-5%[46.1 µM]	nt	nt	?	-2.8%	-4%
> COc1ccc(NC(=O)CN(C)C(=O)c2ccccc2CCc2ccccc2)cc1
    2%	-16%	?	nt	23%	?	nt	nt
> CC(=O)O[C@]1(C)C(=O)OC/C2=C/CN(C)CCC(OC(=O)[C@@](O)(C(C)O)C[C@H]1C)C2=O (stereo not given in full)
    4%	-1%	9%[46.1 µM]	12%	4%	-8%[46.1 µM]	nt	nt

# A second format for some results above:
mol	SARS PLP yeast	2A StopGo	Lassa entry inh	NS1 function inh	RE007 growth inh	Marburg entry inh	Cruzain Triton	Cruzain noTriton
CCC(=O)Nc1cc(Cl)ccc1C(=O)O	1%	0%	4%	5%	-1%	9%	4.6%	4%
O=[N+]([O-])c1ccc(N2CCN(C(=S)Nc3ccc(F)cc3F)CC2)cc1	0%	?	?	5%	3%	-1%[14.2 µM]	nt	nt
COc1ccccc1-n1cnnc1SCC(=O)N1CCOCC1	0%	3%	13%[46.1 µM]	11%	-7%	1%[46.1 µM]	nt	nt
COc1ccc(C(=O)NNC2=NCCCCC2)cc1	0%	18%	nt	7%	-18%	19%[46.1 µM]	nt	nt

# Carrying on.
# Values run as follows: SARS PLP yeast	2A StopGo	Lassa entry inh	NS1 function inh	RE007 growth inh	Marburg entry inh	Cruzain Triton	Cruzain noTriton
> O=C(NC(Cc1ccccc1)C(=O)N1CCCC(C(F)(F)F)C1)c1ccccc1 (stereo not given)
    4%	-9%	3%	nt	4%	-1%	nt	nt
> Cc1cc(NC(=O)C(C)SCC(=O)N(C)CC(=O)Nc2ccc(F)cc2)no1 (stereo not given)
    1%	-4%	9%	nt	-6%	?	nt	nt
> CCC1(c2ccccc2)NC(=O)N(CC(=O)Nc2ccc3c(C)cc(=O)oc3c2)C1=O (stereo not given)
    nt	-11%	?	nt	-20%	18%	nt	nt
> CSc1cccc(NC(=O)c2cc(S(=O)(=O)N3CCCCC3)c[nH]2)c1
    13%	19%	nt	-18%	-16%	nt	nt	nt
> Cc1ccc2oc(=O)c3cnn(CC(=O)N4CCN(c5cccc(C(F)(F)F)c5)CC4)c3c2c1
    nt	?	7%[46.1 µM]	nt	nt	6%[46.1 µM]	-0.9%	-1%
> COC(=O)C1=C(C)N=C2SC(C#N)=C(N)N2C1c1ccc(OCc2ccccc2)cc1 (stereo not given)
    -12%	?	-11%	9%	-8%	-24%	-13%	-27%
> CCSc1nnc(NC(=O)CSc2nc(CC)nc3c2c(=O)n(C)c(=O)n3C)s1
    3%	?	nt	-30%	-1%	nt	-0.4%	-9%
> Cc1cc(NC(=O)Nc2ccc(Cl)cc2)no1
    -11%	30%	-7%[46.1 µM]	-23%	-2%	21%[46.1 µM]	nt	nt
> CC1=C(C(=O)OCC(C)C)C(c2cccs2)NC(=S)N1 (stereo not given)
    0%	?	-26%	4%	7%	-9%	-8.8%	4%
> Cc1ccc(SCc2ccc(C(=O)N3CCCC3)cc2)cc1
    -1%	20%	nt	-33%	40%	0%[46.1 µM]	nt	nt
> COc1ccc(CCN(C(=O)C(F)(F)F)C(C(=O)NC2CCCC2)c2cccs2)cc1 (stereo not given)
    -7%	nt	?	-27%	nt	?	-0.8%	-2%
> CC(NC(=O)c1cc(S(=O)(=O)N2CCOCC2)ccc1N1CCCC1)c1ccc(Cl)c(Cl)c1 (stereo not given)
    1%	-2%	?	nt	6%	?	nt	nt
> O=[N+]([O-])c1ccc(C2(O)CN(c3ccccc3)C3=[N+]2CCS3)cc1 (stereo not given)
    -2%	-18%	0%	10%	0%	-5%[46.1 µM]	nt	nt
> O=C(CN1CCCc2ccccc21)NC(=O)NCc1ccco1
    0%	-4%	-8%	8%	15%	?	0.1%	-3%
> Cc1ccc(-c2nn3c(C)nnc3c3ccccc23)cc1S(=O)(=O)N1CCN(CCO)CC1
    -1%	4%	-3%	-8%	-17%	?	-2.6%	4%
> O=C(NNC(=O)c1cccnc1)Nc1ccc(Cl)c(Cl)c1
    0%	1%	?	17%	17%	11%	-2.3%	4%
> CCOC(CC(=O)NNC(=O)c1c(-c2c(Cl)cccc2Cl)noc1C)OCC
    0%	-5%	?	-1%	0%	-4%[46.1 µM]	nt	nt
> COC(=O)C1C2c3ccccc3OC1(C)N=c1s/c(=C/c3cnn(C)c3C)c(=O)n12 (stereo not given)
    5%	-13%	10%	-44%	5%	-1%&-1%	-7.4%	?
> COc1ccc(Cl)cc1NC(=O)CSc1nc2ccsc2c(=O)n1CC1CCC(C(=O)O)CC1 (stereo not given)
    16%	?	nt	?	1%	nt	nt	nt
> Cc1ccc2c(C)c(C(=O)Nc3c(C)n(C)n(-c4ccccc4)c3=O)oc2c1C
    -8%	?	3%	0%	0%	?	-0.5%	-12%

# Whole records from above. Screens in order: SARS PLP yeast | 2A StopGo | Lassa entry inh | NS1 function inh | RE007 growth inh | Marburg entry inh | Cruzain Triton | Cruzain noTriton
# CCOC(CC(=O)NNC(=O)c1c(-c2c(Cl)cccc2Cl)noc1C)OCC as listed: 0% | -5% | ? | -1% | 0% | -4%[46.1 µM] | nt | nt
# CCC1(c2ccccc2)NC(=O)N(CC(=O)Nc2ccc3c(C)cc(=O)oc3c2)C1=O (stereo not given) as listed: nt | -11% | ? | nt | -20% | 18% | nt | nt

# (next part)
# Values run as follows: SARS PLP yeast	2A StopGo	Lassa entry inh	NS1 function inh	RE007 growth inh	Marburg entry inh	Cruzain Triton	Cruzain noTriton
> COc1ccc(N2CCN(c3nccs3)CC2)cc1
    -1%	28%	?	-18%	-16%	-13%[46.1 µM]	nt	nt
> COc1ccc(N(CC(=O)Nc2ccccc2OC)S(=O)(=O)c2ccccc2)cc1Cl
    -2%	-15%	nt	-2%	-1%	nt	nt	nt
> COc1ccccc1CN1CCN(Cc2nc(-c3ccc(C)cc3)oc2C)CC1
    -2%	-24%	nt	0%	-2%	nt	nt	nt
> Cc1ccc(CNC(=O)CSc2nc3[nH]ncc3c(=O)[nH]2)cc1
    -16%	3%	-1%	0%	0%	5%	-2.8%	-6%
> COC(=O)c1ccc(S(=O)(=O)N2CCN(C)CC2)n1C
    0%	-19%	nt	2%	6%	nt	nt	nt
> O=C(Nc1ccc(S(=O)(=O)Nc2nccs2)cc1)c1c(F)c(F)c(F)c(F)c1F
    -6%	26%	2%	0%	-10%	-2%	nt	nt
> Cc1cc2ccc3ccccc3c2cc1CN(C)C
    1%	0%	6%	-5%	1%	?	nt	nt
> Cc1ccc(-c2cc(-c3ccc(Cl)cc3)c(C#N)c(N)n2)o1
    -29%	-15%	?	-56%	-20%	?	-0.4%	?
> COc1ccc(/C=[N+](\[O-])C2N(c3ccccc3)C(=S)SC2(C)C)cc1OC (stereo not given)
    0%	0%	-28%	3%	2%	2%	nt	nt
> Cc1nc2c(-c3ccc(F)cc3)c(C)nn2c(C)c1CCC(=O)NC(C)CCc1ccco1 (stereo not given)
    -5%	?	nt	-13%	18%	nt	-14%	?
> O=C(/C=C/c1ccc(Cl)cc1)N(c1ccccn1)C1CCCCC1
    -52%	0%	?	-37%	-12%	?	-4.5%	3%

# Hits appear at their usual frequency, and some 4.7% of all compounds hit somewhere here.
